DT40 TDP1 no CPT: qHTS for Inhibitors of human tyrosyl-DNA phosphodiesterase 1 (TDP1): qHTS in cells in absence of CPT; DT40 Tdp1-/- hTDP1 cells, no CPT, ATP luminescence, 48 h; Potency, µM (highest dose often 46.2 µM), inactives show at the top dose activity change, negative = growth inhibition, actives largely listed as inhibitors; actives 15% (n = 420,000); AID 686978, 2013; further: nearly all actives have a fitted effect of over 55% in size
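Cells were dispensed at 400 per well, compounds added by pin tool, plates incubated ≥48 hr at 37 °C, then CellTiter-Glo added for 30 min at room temperature before luminescence reading. Line: DT40 Tdp1-/- complemented with hTDP1; camptothecin omitted.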
TDP1 cell CPT: qHTS for Inhibitors of human tyrosyl-DNA phosphodiesterase 1 (TDP1): qHTS in cells in presence of CPT; actives 12% (n = 420,000); Potency, µM (doses to about 46.2 µM), for inactives: at the highest dose activity change, negative = growth inhibition, usual class: inhibitors; chicken DT40 Tdp1-/-;hTDP1 cells + 20 nM CPT, ATP luminescence, 48 h; further: nearly all actives have a fitted effect of over 55% in size
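Cell growth measured by CellTiter-Glo luminescence after a minimum 48 h, 37 C compound exposure with 20 nM CPT in Tdp1-knockout DT40 cells stably expressing hTDP1, seeded 400/well; qHTS titration format.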
* marks the source's active call; other numbers are inactive results; u = inconclusive. The call rests on the fitted dose curve; in most records, active means well fitted inhibition curve with a large enough effect; inconclusive means small, poorly fitted or top-dose-only effect; inactive means flat fitted curve, though single readings scatter. On the % scale 0 is the no-effect control and ±100 the full control effect; potency means the concentration at half of the fitted maximal effect. An excerpt, and most or all hits are left out here.

compound | DT40 TDP1 no CPT | TDP1 cell CPT
COc1ccccc1CNC(=O)C/C(C)=N/NC(=O)Cc1ccccc1 | -15% | 0%
COc1ccc(S(=O)(=O)Nc2nnc(C(C)C)s2)cc1 | -11% | -3%
Cc1ccc(Nc2nnc(SC3CCOC3=O)s2)cc1 (configuration not stated) | 0% | -1%
COCCNC(=O)CSc1nc2cc(OC)c(OC)cc2c(=O)n1Cc1ccco1 | -11% | u
N/C(=N\OC(=O)C12CC3CC(CC(C3)C1)C2)c1cccnc1 | -12% | -2%
Cc1ccccc1C(=O)NC(CC(C)C)C(=O)OCc1cc(=O)n2cc(Br)ccc2n1 (configuration not stated) | -21% | -3%
COc1cccc(-c2nc(C(N)=O)c3[nH]c(=O)n(-c4ccccc4)c3n2)c1OC | -28% | -13%
COc1ccc(C(C#N)N2N=C(C)CC2(C)C)cc1 (configuration not stated) | -5% | -5%
COc1ccc(OCC(=O)NC2CC(C)(C)NC(C)(C)C2)cc1 | -2% | u
CCCc1cc(=O)[nH]c(SCC(=O)C(C)(C)C)n1 | -2% | 2%
CCN1C(=O)c2c(C)nc3ccccc3c2C1=O | -5% | -3%
O=C(c1cccc(Cl)c1)N1CCN(C2CCCCCC2)CC1 | u | -19%
CC1CC(=O)N(CC(=O)NCc2ccc3c(c2)OCO3)c2ccccc2S1 (configuration not stated) | -24% | -11%
Cc1cc(Oc2nnnn2-c2ccccc2)ccc1Cl | 9% | 2%
O=C(Cn1cncn1)NCc1cccc(C(F)(F)F)c1 | 12% | 10%
CN(C)c1nc2sc3c(c2c(=O)n1C)CC(C)(C)OC3 | u | 5%
COc1ccc(CN=C(Nc2ccccc2)SC2CC(=O)N(C)C2=O)cc1 (configuration not stated) | -15% | u
Cc1ccc(-c2nc3ncccc3o2)cc1NC(=O)c1cccs1 | -9% | -4%
CCCC12CN3CC(C)(CN(C1)C31C(=O)Nc3ccc(C)cc31)C2=O (configuration not stated) | -4% | 3%
COc1cc(C(=O)OCC(=O)NC2CCS(=O)(=O)C2)c([N+](=O)[O-])cc1OC (configuration not stated) | -10% | -5%
COCCn1c(SCC(=O)Nc2ccc(OC)cc2)nnc1-c1ccoc1C | 2% | 2%
COc1ccc(-n2c(SCC(=O)N3CCOCC3)nc(O)cc2=O)cc1 | 21% | 0%
O=C(Nc1cc(S(=O)(=O)N2CCCC2)ccc1OCC(F)(F)F)c1ccccc1F | -4% | -2%
O=C(NCCN1CCOCC1)c1c(Cl)cccc1Cl | 5% | -16%
O=S1(=O)CCC(NS(=O)(=O)/C=C/c2ccccc2)C1 (configuration not stated) | 0% | -20%
O=C(Nc1ccccc1Br)C1CCN(S(=O)(=O)c2cccs2)CC1 | 1% | -9%
Cc1onc(-c2c(Cl)cccc2Cl)c1C(=O)NNc1ccccc1 | u | 2%
CN(C1CCS(=O)(=O)C1)S(=O)(=O)c1cccs1 (configuration not stated) | -12% | 9%
C=CCn1c(C(C)NC(=O)c2ccccc2C)n[nH]c1=S (configuration not stated) | -11% | -3%
Cc1c(NC(=O)Nc2ccc(Cl)cc2Cl)c(=O)n(-c2ccccc2)n1C | -20% | -13%
CCOC(=O)c1c(NC(=O)c2nc3n(n2)C(C(F)F)CC(C)N3)sc2c1CCCC2 (configuration not stated) | u | -27%
O=C(/C=C/c1ccc(Cl)cc1)NCc1cccs1 | u | -7%
Cc1nnc(SCC(=O)NC2CCS(=O)(=O)C2)n1Cc1ccccc1 (configuration not stated) | -9% | u
Fc1ccc(COc2ccccc2-c2ccnc3ncnn23)cc1 | 8% | 8%
COc1ccc(NC(=O)COC(=O)c2cc(=O)c3ccccc3o2)cc1OC | -7% | -5%
COc1ccc(C(=O)N2CCCC(Nc3ccc(C)c(C)c3)C2)cc1 (configuration not stated) | -6% | u
COc1ccccc1CCC(=O)Nc1ccc(S(=O)(=O)Nc2cc(C)nc(C)n2)cc1 | -12% | 5%
CCn1c(Cc2ccccc2)nnc1SCC(=O)Nc1nccs1 | -9% | u
Cc1ccc(C)c(-c2nc3cc(N)ccc3o2)c1 | -20% | -2%
O=C(CSc1ccc2nnc(-c3ccccn3)n2n1)NCc1ccco1 | -2% | -10%
CC(C)OC(=O)c1nnn(-c2nonc2N)c1CN1CCCCCC1 | -13% | -6%
CC1(C)CC(NC(=O)Cc2ccc(Cl)cc2)CC(C)(C)N1 | -11% | 6%
CN(C)S(=O)(=O)Nc1cccc(-c2cn3c(n2)SCC3)c1 | -13% | 2%
Cc1occc1C(=O)NNC(=O)C1CCCC1 | 2% | -1%
COCCCNC(=O)C(F)(F)C(F)(F)C(=O)NCCCOC | -11% | -9%
CCOC(=O)c1cnc2sccn2c1=O | 1% | -17%
COC(=O)NC1CCC(CC2CCC(NC(=O)OC)CC2)CC1 (configuration not stated) | u | -26%
CN(c1ccc(OCC(=O)Nc2ccc3[nH]c(=O)[nH]c3c2)cc1)S(=O)(=O)c1ccc(Cl)cc1 | -22% | u
COc1cccc(CNC(=O)C2CCN(S(=O)(=O)c3ccc4c(c3)NC(=O)CO4)CC2)c1 | 2% | -1%
CC(C)OC(=O)CSc1nnc(-c2ccc(Cl)cc2Cl)n1N | -6% | 1%

An excerpt of these results, with two lines to a compound:
Order of values: DT40 TDP1 no CPT, TDP1 cell CPT
> CCOC(=O)c1cnc2sccn2c1=O
  1%, -17%
> COc1cccc(CNC(=O)C2CCN(S(=O)(=O)c3ccc4c(c3)NC(=O)CO4)CC2)c1
  2%, -1%
> CC(C)OC(=O)CSc1nnc(-c2ccc(Cl)cc2Cl)n1N
  -6%, 1%

Additional records follow:
compound | DT40 TDP1 no CPT | TDP1 cell CPT
CCNC(=O)COC(=O)C1CCN(S(=O)(=O)c2ccc3c(c2)OCCO3)CC1 | 10% | 2%
O=C(NCCN1C(=O)C2C3C=CC(C3)C2C1=O)Nc1ccccc1 (configuration not stated) | 10% | -1%
O=c1cc(CN2CCN(S(=O)(=O)c3ccccc3)CC2)nc2sccn12 | 1% | -2%
Cc1sc2nc(C)n(/N=C/N(C)C)c(=O)c2c1C | -40% | -9%
CCSc1nnc(N(CCC(=O)O)CCC(=O)O)s1 | u | 4%
O=C(O)CCC(=O)NC1CCCCC1 | 3% | 6%
O=C(Cc1ccccc1)NCC(=O)N1CCc2ccccc2C1 | -5% | -12%
COc1ccc(OC)c(CN2CCN(S(=O)(=O)c3ccc(NC(C)=O)cc3)CC2)c1 | -8% | -4%
COc1ccc(NC(=O)N(C2CCCCC2)C2CCN(C(C)C)CC2)c(OC)c1 | -24% | -25%
COc1cccc(C(=O)NCCS(=O)(=O)NCc2cccs2)c1 | 2% | 4%
Cc1ccc(S(=O)(=O)N2CCN(C(=O)Cn3nc(C)c([N+](=O)[O-])c3C)CC2)c(C)c1 | -8% | -28%
Cc1ccc(S(=O)(=O)NC(=O)CSc2nc3ccccc3s2)cc1 | -10% | -28%
CCc1nnc(NC(=O)CSc2nnc(-c3ccoc3C)n2-c2ccc(C)cc2)s1 | u | -18%
CC1(C)Oc2ccc(C(=O)N3CCOCC3)cc2N(CC(=O)Nc2ccccc2)C1=O | -10% | -5%
O=C(N1CCN(c2ccccc2)CC1)C(F)(F)C(F)(F)F | -6% | 10%
CCOP(=O)(OCC)/C(C#N)=C/c1cc(OC)ccc1OC | -30% | -6%
O=C(c1cc(-c2ccc(Cl)cc2)on1)N1CCCC1 | 5% | 3%
O=C(O)CCSc1nc2ccc(Br)cc2[nH]1 | -5% | 1%
COC(=O)c1ccc(-c2cc(C(=O)O)c3cc4c(cc3n2)OCCO4)cc1 | -15% | -1%
CCOc1ccc(C(=O)N(CC)CC(=O)Nc2ccc3c(c2)OCCO3)cc1OCC | -1% | -15%
COc1ccc(S(=O)(=O)CCC(=O)NCCc2ccc(C)cc2)cc1 | -8% | -25%
Cc1ccc(OCC(=O)Nc2nnc(-c3ccco3)s2)cc1 | 2% | -7%
CCOC(=O)C1CCN(S(=O)(=O)c2ccc(C(C)=O)cc2)CC1 | -2% | u
FC(F)(F)c1ccc(CN2CCN(Cc3ccco3)CC2)cc1 | -10% | -13%
COc1cccc(N=C2SC(C(=O)Nc3ccc(F)cc3)CC(=O)N2C)c1 (configuration not stated) | -24% | -9%
COc1cc(NC(=O)CCN2CCN(C)CC2)cc(OC)c1 | 0% | 9%
COc1ccc(Br)cc1/C=N/n1c(C)nc2ccccc2c1=O | 6% | -14%
CCCCC(=O)Nc1ccc(C(=O)NNC(=S)NC(=O)c2ccccc2[N+](=O)[O-])cc1 | -12% | -1%
CC(Oc1ccc(Cl)cc1Cl)C(=O)Nc1cccnc1 (configuration not stated) | -26% | u
CC(CC(=O)O)CC(=O)Nc1cccc([N+](=O)[O-])c1 (configuration not stated) | -2% | 3%
O=C(COc1cnc2ccccc2n1)NCCC1=CCCCC1 | -3% | -4%
COc1cccc(OCC(=O)NNC(=O)c2ccc(-c3ccccc3)cc2)c1 | -3% | 1%
COc1ccc(CNC(=O)CSc2nnc(-c3cccnc3)n2N)cc1 | -5% | 1%
COc1ccc(NC(=O)C(=O)N/N=C/c2cccnc2)c(OC)c1 | -5% | -5%
Cc1c(C(=O)N2CCOCC2)oc2ccc(Br)cc12 | -22% | -16%
CN(C(=O)c1cnccn1)c1c(N)n(Cc2ccccc2)c(=O)[nH]c1=O | -15% | 13%
COc1ccccc1NS(=O)(=O)c1ccc(NC(=O)c2[nH]nc(OC)c2[N+](=O)[O-])cc1 | -16% | -7%
C=CCN1CC(=O)N2C(C)c3[nH]c4ccccc4c3C[C@H]2C1=O (some centres not stated) | -9% | 6%
O=C(C1CC1)n1cc(C(=S)N2CCOCC2)c2ccccc21 | -29% | 0%
N#CC1=C(N)Oc2n[nH]c(-c3ccccc3)c2C1c1cccc(OC(=O)N2CCOCC2)c1 (configuration not stated) | -24% | 0%
CCOC(=O)c1ccccc1NC(=O)C1CC(=O)N(C(C)(C)C)C1 (configuration not stated) | 1% | 9%
Cc1nc2cnc(N3CCNCC3)nc2n(Cc2cccs2)c1=O | 1% | -2%
CCc1noc(C)c1C(=O)NNC(=O)c1nn(C)c(=O)c2ccccc12 | -7% | -23%
O=C(CC12CC3CC(CC(C3)C1)C2)N1CCOCC1 | -3% | 11%
O=C(Nc1ccc(F)c(Cl)c1)c1ccccc1 | -11% | -21%
COCc1cc(=O)n2[nH]c(N)nc2n1 | 3% | 2%
N#Cc1c(-c2ccc(F)cc2)c2c([nH]c1=O)-c1ccccc1OC2 | -5% | -10%
CN(Cc1cccs1)C(=O)CSc1nc2ccccc2[nH]1 | u | 0%
COc1ccccc1/C=C/C=C1N=C(/C=C/c2ccc(Cl)cc2)OC/1=O | -2% | 0%
CCOC(=O)c1sc(NC(=O)CSc2nc(O)c(Cc3ccccc3)c(=O)[nH]2)nc1C | -11% | 3%

The list continues:
compound | DT40 TDP1 no CPT | TDP1 cell CPT
CS(=O)(=O)c1ccc(C(=O)OCC(=O)N(CCc2ccccc2)Cc2ccccc2)cc1 | -15% | -12%
CCOP(=O)(OCC)C(NC(=O)c1cccs1)C(F)(F)F (configuration not stated) | -18% | 15%
CCCS(=O)(=O)N1CCN(CCCc2ccccc2)CC1 | -19% | -9%
O=C(c1ccco1)n1nc(NCc2ccccc2)nc1NCc1ccccc1 | u | -19%
Cc1cc(C(=O)Nc2ccccc2C(=O)N2CCCCC2)ccc1[N+](=O)[O-] | -29% | -10%
COc1ccc(Cl)cc1NC(=O)CN(C)C(C)C(=O)NCC1CCCCC1 (configuration not stated) | -16% | -17%
CCOC(=O)C1CCN(Cc2ccc(N(C)C)cc2)CC1 | -12% | -5%
CCn1c(SCC(=O)N2CCCC(C)C2)nc2c1c(=O)n(C)c(=O)n2C (configuration not stated) | -4% | 0%
O=C(CNC(=S)N(CCCN1CCOCC1)Cc1cccs1)NC1CCCC1 | 11% | 2%
CCOC(=O)c1cnc2c([N+](=O)[O-])cnn2c1C | 10% | -3%
CCCCN(C)C(=O)c1nc2ccccn2c1CN1CCN(c2ccccn2)CC1 | -1% | 20%
CCC(=O)Nc1nnc(SCCN2CCOCC2)s1 | -8% | -5%
CN1C(=O)c2ccc(C(=O)NCc3ccc4c(c3)OCO4)cc2C1=O | -12% | 0%
O=C(CNC(=O)c1ccccc1F)NC1=NCCS1 | -26% | u
O=C(CN1CCN(c2ccccn2)CC1)NCc1cccs1 | -6% | -12%
COc1ccc(NC(=O)CC2C(=O)N(c3ccc(OC)cc3)C(=S)N2NC(=O)c2cccc(F)c2)cc1 (configuration not stated) | 5% | 5%
CC(C)NC(=O)N1CCN(c2ccncc2S(=O)(=O)N2CCOCC2)CC1 | -14% | -12%
COc1ccc(CC(=O)OCc2cc3ccc(C)cc3[nH]c2=O)cc1 | u | -25%
